# VDR inhibitor: vitamin D3 receptor (human) inhibition | VDR-SRC2-3 peptide fluorescence polarization, 2 h | 400,000 tested, 0.93% active | P11473 | AID 504847 | Potency, µM, for the others: max response, negative = inhibition, hits mostly inhibitors; active = well fitted inhibition curve with a large enough effect; inconclusive = small, poorly fitted or top-dose-only effect, or another doubt; inactive = no such curve, though single readings can be large or run the other way; also: series mostly up to about 120 µM
# Target sequence (P11473 whole entry, looked up): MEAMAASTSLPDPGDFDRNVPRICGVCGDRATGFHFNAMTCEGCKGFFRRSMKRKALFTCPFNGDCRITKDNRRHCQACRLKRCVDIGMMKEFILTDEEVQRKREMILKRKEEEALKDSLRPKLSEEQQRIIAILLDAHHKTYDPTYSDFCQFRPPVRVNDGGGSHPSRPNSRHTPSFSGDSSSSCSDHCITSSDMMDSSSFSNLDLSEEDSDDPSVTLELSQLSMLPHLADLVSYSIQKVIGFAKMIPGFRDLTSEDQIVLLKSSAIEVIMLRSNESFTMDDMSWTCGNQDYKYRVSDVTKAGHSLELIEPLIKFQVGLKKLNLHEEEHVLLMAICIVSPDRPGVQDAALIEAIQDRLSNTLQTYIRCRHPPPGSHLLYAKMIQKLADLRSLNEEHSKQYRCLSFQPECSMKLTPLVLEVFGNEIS
#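 Compounds are added to VDR with labelled SRC2-3 coactivator peptide and held 2 h at room temperature. Inhibition of the VDR–peptide interaction is then read as a change in fluorescence polarization.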
# Starred values were filed as active, the others as inactive; ? = inconclusive; & = joins results of further samples. % is scaled to controls: 0 for no effect and ±100 for the full control effect; potency is read from the fitted curve at half-maximal effect. An excerpt; rates above refer to the full screens.
SMILES,VDR inhibitor
O=C(COCc1cc(-c2cccs2)on1)N1CCN(c2ccccc2)CC1,8%
O=C(NCc1ccccc1)c1csc2c1CCCCC2,10%
CC(C)CC(NC(N)=O)C(=O)OCC(=O)Nc1ccc(SC(F)F)cc1 (stereo not drawn),-7%
Cc1ccc(Cl)cc1Nc1nn2c(=O)c3ccc(C(=O)NC(C)c4ccccc4)cc3nc2s1 (stereo not drawn),3%
Cc1ccccc1-c1nnc(-c2ccc(Cl)cc2)o1,-1%
CCN(CC)C(=O)C(=O)c1ccn(-c2c(C)csc2C(=O)OC)c1,0%
Cc1ccc(NC(=O)C(=O)NCCc2sc(-c3ccc(Cl)cc3)nc2C)cc1C,7%
CC1CCCN(C2(O)C(=O)Nc3ccc(Cl)cc32)C1 (stereo not drawn),-6%
C=CCn1c(SCC(=O)Nc2ccc(Br)cc2)nc(O)c(CC)c1=O,-7%
CCc1cc(C(=O)NCC(c2ccco2)N2CCCCC2)sc1C (stereo not drawn),-15%
Cc1ccc(-c2nc3c(C)cccn3c2Nc2ccccc2C)s1,-1%
Cc1cccc(NC(=O)C2(c3ccccc3)CCOCC2)c1,6%
Cc1cccc(Oc2nc3c(c(=O)n(C)c(=O)n3C)n2C)c1C,6%
CCOC(=O)C1(Cc2cccc(Cl)c2)CCCN(CCO)C1 (stereo not drawn),-2%
CN(C)C(CNC(=O)NC1CCCCC1)c1cccnc1 (stereo not drawn),-5%
COc1ccccc1C(=O)N/C(=C\c1ccccc1)C(=O)NC(C)C(=O)O (stereo not drawn),-14%
CC(C)[C@@H](CC(=O)N[C@@H]1CCCC[C@H]1C(=O)N[C@H](CC(=O)N[C@@H](CCC(=O)O)CC(=O)O)Cc1c[nH]c2ccccc12)NC(=O)C[C@H](CO)NC(=O)[C@@H]1CNCC[C@H]1N,-3%
COc1ccc2c(c1OC)C(=O)OC2Nc1ccccc1S(=O)(=O)C(F)F (stereo not drawn),1%
Cc1cccc(-n2cc(-c3ccccc3)c3c(NC(C)C)ncnc32)c1,15%
CCc1nn(CC(=O)NCCCc2ccccc2)c(=O)c2cc3cc(F)ccc3n12,2%&15%
C=CCSc1nnc(Cn2c(=O)sc3ccccc32)n1C,-4%
Cc1nc2nc(-c3cccnc3)[nH]n2c(=O)c1Cc1ccccc1,-17%
CCN(CC)C(=O)Cn1cc(S(=O)(=O)CC(=O)Nc2ccc3c(c2)OCCO3)c2ccccc21,-10%
CC(CNC(=O)CN1C(=O)NC2(CCCCC2C)C1=O)c1ccccc1 (stereo not drawn),-10%
C=CCSCC(N)C(=O)O (stereo not drawn),16%
SMILES,VDR inhibitor
Nc1ccc(Cn2ccc3c4c(N)nc(N)nc4ccc32)cc1,-3%
CCCC[C@H](NC(C)=O)C(=O)N[C@@H](CCC(=O)O)C(=O)N[C@@H](Cc1cnc[nH]1)C(=O)N[C@H](Cc1ccccc1)C(=O)N[C@@H](CCCN=C(N)N)C(=O)N[C@H](Cc1c[nH]c2ccccc12)C(=O)NCC(N)=O,17%
O=C(CCN1C(=O)C2C3C=CC(C4CC34)C2C1=O)Oc1cccc2cccnc12 (stereo not drawn),5%
CCN1C(=O)N[C@@H](c2cccc(C(F)(F)F)c2)[C@@H](C(=O)OC)[C@H]1C,-10%
COc1ccc(CN2CCN(c3ccccn3)CC2)c(OC)c1,-3%
Cc1ccc2nc(N3CCN(c4ccc(F)cc4)CC3)c3nnnn3c2c1,2%
Cc1ccc(S(=O)(=O)N2[C@@H](c3ccc(Cl)cc3)C(C(=O)O)=CC[C@H]2c2ccc(Cl)c(Cl)c2)cc1,?
Cc1ccc(-c2nnc3ccc(SCC(=O)NCc4ccco4)nn23)cc1,-9%
O=C(Nc1ccccc1Cl)c1cccc(NC(=O)c2cccs2)c1,-7%
Nc1nc(NCc2ccccc2)nc(-c2ccccc2)n1,13%
Cc1nc(-c2cccc(F)c2)sc1CCNC(=O)Cc1ccc(F)cc1,-4%
Cc1ccc(Cl)cc1N(C)C(=O)Cn1nc(Cc2cccnc2)c2ccccc2c1=O,4%
Cc1ccc(S(=O)(=O)N2CCC(=O)N([C@H](COCc3ccc(C(F)(F)F)cc3)Cc3ccccc3)CC2)cc1,1%
O=C(NNS(=O)(=O)c1ccc(F)cc1)c1ccccc1O,15%
CC1(C)Cc2c(C#N)c(NCCO)nc(-c3ccco3)c2CO1,-2%
COc1cccc(CN2CC34CCC(CC3S2(=O)=O)O4)c1 (stereo not drawn),-1%
CCOc1cc(/C=N/NC(=O)CNc2cccc(C)c2)ccc1OC(=O)c1ccccc1,8%
CCOc1ccccc1Nc1cc(C)nc2nc(C)nn12,14%
O=C(NC1CCCCC1)c1ccc2c(=O)n(CC3CCCO3)c(=O)[nH]c2c1 (stereo not drawn),1%
O=C(Nc1ncc(Cc2ccccc2)s1)C1=NCCN1,-18%
O=C1CC(c2ccccc2)NC(=O)N1 (stereo not drawn),-8%
CC12C=CC(=O)C=C1CCC1C3CCC(O)(C(=O)CO)C3(C)CC3OC312 (stereo not drawn),2%
CC(OC(=O)c1cccc(S(=O)(=O)N2CCCCC2)c1)C(=O)NCC1CCCCC1 (stereo not drawn),-5%
CCC(C)CCCCC(=O)N[C@@H](CCN)C(=O)N[C@H](C(=O)N[C@@H](CCN)C(=O)N[C@H]1CCNC(=O)C([C@@H](C)O)NC(=O)[C@@H](CCN)NC(=O)[C@H](CCN)NC(=O)[C@H](CC(C)C)NC(=O)[C@@H](CC(C)C)NC(=O)[C@H](CCN)NC1=O)[C@@H](C)O (stereo partly drawn),5%
O=C(N/N=C/c1ccncc1)C1C2CCCCCCC21 (stereo not drawn),-13%
SMILES,VDR inhibitor
N#Cc1c(-c2ccccc2)nc(SCC(=O)N2c3ccccc3Sc3ccccc32)[nH]c1=O,-11%
Cc1ccc(C(C)C)c(OCC(=O)Nc2c(C(=O)c3ccc(F)cc3)oc3ccccc23)c1,-3%
COc1ccc2c(c1)[nH]c1c(=O)n(/N=C/c3ccc(OC)c(CN4CCCC4)c3)cnc12,-9%
CCOc1ccc(C(=O)N2CCN(c3cccc(C)c3C)CC2)cc1,-27%
CCCOc1ccc(-c2nonc2NC(=O)c2ccco2)cc1OCCC,4%
CS(=O)(=O)N(CC(=O)NCC1CCCO1)c1cccc(Cl)c1 (stereo not drawn),-2%
COc1ccc([C@@H]2[C@@H]3C(=O)N(C(C)(C)C)C(=O)[C@@H]3[C@]3(Cc4ccccc4)C(=O)N(c4ccccc4)C(=O)N23)cc1,-9%
O=C(CN1CCCCCC1)Nc1ccc(Br)cc1,0%
O=C(C1=C[C@@H](C2CC2)C[C@@H](OCCCCO)O1)N1CCOCC1,2%
CC1CCN(c2ccc(C(=O)NCCc3ccccc3)cn2)CC1,-3%
COc1cc([N+](=O)[O-])ccc1NC(=S)NCc1ccccn1,-15%
S=C(NCc1ccccc1)NCc1ccccc1,0%
CCC(=O)Nc1cccc(C(=O)/C=C/c2ccccc2)c1,50µM*
CCc1ccccc1NC(=O)CN(C)C(=O)Cn1cc(C(F)(F)F)cc(Cl)c1=O,8%
Cc1nnc(SCc2cc(=O)c3ccccc3[nH]2)s1,11%
COc1cccc(C(=O)NNC(=O)CCC(=O)O)c1,13%
NC(=O)CCN1CCN(C(=O)c2ccc3nc(Cc4cccc(Cl)c4)oc3c2)CC1,0%
O=C(COC(=O)/C=C/c1ccc2c(c1)OCO2)Nc1ccccc1,5%
COC(=O)CC1COc2ccccc2N1C(=O)c1ccc(OC)cc1 (stereo not drawn),-3%
CCN(CC)S(=O)(=O)c1ccc(NC(=O)c2ccc(Sc3nncn3C)c([N+](=O)[O-])c2)cc1,9%
Cc1ccc(C)c(N2CCN(C(=O)NCc3noc4ccc(C)cc34)CC2)c1,3%
Oc1c(Br)cc(Br)cc1/C=N/c1nccs1,?
CN1CCN(C(=S)SCC(=O)N2CCCc3ccccc32)CC1,-4%
Cc1ccnc(N2CCC(C(=O)NNC(=O)c3ccccc3)CC2)n1,13%
CCS(=O)(=O)c1ccc2oc(Nc3ccccc3Cl)nc2c1,10%
SMILES,VDR inhibitor
CC(=O)Nc1ccc(NC(=O)c2cccc(S(=O)(=O)N(C)C3CCCCC3)c2)cc1,-12%
O=S(=O)(CCNCCc1ccccc1)NC1CCCCC1,-2%
CC(C)C1N=C2c3ccccc3N=C(SCC(=O)NCc3ccc(Cl)cc3)N2C1=O (stereo not drawn),7%
CCN1CCN(C(=O)NC(C(=O)NC2C(=O)N3C2SC(C)(C)C3C(=O)O)c2ccccc2)C(=O)C1=O (stereo not drawn),1%
CCN(CC)c1ccc(NC(=O)CN2C(=O)CSc3ncccc32)c(C)c1,-7%
C/C(CC(=O)Nc1ccc(N(C)C)cc1)=N\NC(=O)Cc1csc(N)n1,-14%
CCOC(=O)c1ccc(NC(=O)c2nc[nH]c2C(=O)N[C@@H](Cc2ccccc2)C(=O)OC(C)(C)C)cc1,-2%
c1ccc(CNc2ncnc3ccccc23)cc1,1%&10%
c1ccc(-c2nccc(-c3ccc(-n4cnc5ccccc54)cc3)n2)cc1,1%
CSc1ccc(CCNC(=O)Cn2ncc3c([nH]c4ccccc43)c2=O)cc1,1%&8%
Clc1ccc(COn2c(-c3ccc(Cl)cc3Cl)nc3ncccc32)cc1,-4%
Cc1nn(-c2ccccn2)c(C)c1Oc1ccccc1O,12%
COc1ccc(NS(=O)(=O)c2ccc(Cl)c(NC(=O)c3cccnc3Cl)c2)cc1,1%
O=C(NC1CCCC1)C(c1cccnc1)N(C(=O)c1csnn1)C1CC1 (stereo not drawn),-1%
COc1ccc(S(=O)(=O)N2CC(O)CC2C(=O)OCc2nc3sc(C)c(C)c3c(=O)[nH]2)cc1 (stereo not drawn),-17%
Cc1ccccc1C(=O)N1CCC(n2nccc2NC(=O)C2CC2)CC1,-13%
Cc1ccc(CNC(=O)CN2C(=O)C3CCCCN3c3ccc(C(=O)N4CCCC4)cc32)cc1 (stereo not drawn),5%
CCNC(=O)C1CCN(Cc2cc3ccccc3n2Cc2ccc(C)cc2)CC1,6%
COc1ccc(NS(=O)(=O)c2ccc(N3CCOCC3)c(N)c2)cc1,18%
CCSc1nc(-c2ccccc2)nc2c1CCCC2,2%
O=S(=O)(c1ccc2nnn(O)c2c1)N1CCOCC1,-1%
Cc1c(Cl)cnc(NC(=O)COC(=O)c2cc3c(s2)CCC(C)C3)c1Cl (stereo not drawn),4%
Cc1ccnc(SCC(=O)Nc2sccc2C#N)n1,-6%
O=C(c1ccccc1)[C@@H]1[C@@H]2C(=O)N(c3ccc(F)cc3)C(=O)[C@@H]2C2CCCN21 (stereo partly drawn),?
CCS(=O)(=O)N1CCc2cc(OC)c(OC)cc2C1,-1%

# Part of the list above in a different format.
VDR inhibitor,canonical_smiles
-12%,CC(=O)Nc1ccc(NC(=O)c2cccc(S(=O)(=O)N(C)C3CCCCC3)c2)cc1
-2%,O=S(=O)(CCNCCc1ccccc1)NC1CCCCC1
7%,CC(C)C1N=C2c3ccccc3N=C(SCC(=O)NCc3ccc(Cl)cc3)N2C1=O (stereo not drawn)
1%,CCN1CCN(C(=O)NC(C(=O)NC2C(=O)N3C2SC(C)(C)C3C(=O)O)c2ccccc2)C(=O)C1=O (stereo not drawn)
-7%,CCN(CC)c1ccc(NC(=O)CN2C(=O)CSc3ncccc32)c(C)c1
-14%,C/C(CC(=O)Nc1ccc(N(C)C)cc1)=N\NC(=O)Cc1csc(N)n1
-2%,CCOC(=O)c1ccc(NC(=O)c2nc[nH]c2C(=O)N[C@@H](Cc2ccccc2)C(=O)OC(C)(C)C)cc1
1%&10%,c1ccc(CNc2ncnc3ccccc23)cc1
1%,c1ccc(-c2nccc(-c3ccc(-n4cnc5ccccc54)cc3)n2)cc1
1%&8%,CSc1ccc(CCNC(=O)Cn2ncc3c([nH]c4ccccc43)c2=O)cc1
-4%,Clc1ccc(COn2c(-c3ccc(Cl)cc3Cl)nc3ncccc32)cc1
12%,Cc1nn(-c2ccccn2)c(C)c1Oc1ccccc1O
1%,COc1ccc(NS(=O)(=O)c2ccc(Cl)c(NC(=O)c3cccnc3Cl)c2)cc1
-1%,O=C(NC1CCCC1)C(c1cccnc1)N(C(=O)c1csnn1)C1CC1 (stereo not drawn)
-17%,COc1ccc(S(=O)(=O)N2CC(O)CC2C(=O)OCc2nc3sc(C)c(C)c3c(=O)[nH]2)cc1 (stereo not drawn)
-13%,Cc1ccccc1C(=O)N1CCC(n2nccc2NC(=O)C2CC2)CC1
5%,Cc1ccc(CNC(=O)CN2C(=O)C3CCCCN3c3ccc(C(=O)N4CCCC4)cc32)cc1 (stereo not drawn)
6%,CCNC(=O)C1CCN(Cc2cc3ccccc3n2Cc2ccc(C)cc2)CC1

# Continuation:
SMILES,VDR inhibitor
O=[N+]([O-])c1cccc(/C=C/c2nc(C=Nc3ccccc3)c(O)o2)c1,-6%
Cc1nc(C(F)(F)F)ccc1C(=O)NCC(O)c1ccccc1 (stereo not drawn),-16%
Cc1cc(C)c(S(=O)(=O)c2ccccc2C)c(N(C)C)n1,6%
O=C(CSc1nc2c([nH]c3ccccc32)c(=O)n1-c1ccc(F)cc1)N1CCCCC1,-7%
CN1CCC(N(C)C(=S)NCCc2ccccc2)CC1,-1%
CC[C@H](C)[C@H](NC(=O)[C@H](Cc1ccc(O)cc1)NC(=O)[C@@H]1CCCN1C(=O)[C@@H](NC(=O)[C@@H](N)CCCCN)[C@@H](C)CC)C(=O)N[C@@H](CC(C)C)C(=O)O,13%
CCOC(=O)C1(CCOc2ccccc2)CCN(CCCn2cccn2)CC1,5%
Cc1ccc(S(C)(=O)=O)cc1C(=O)OCC(=O)N(Cc1ccccc1)Cc1ccccc1,-11%
O=C(NCc1ccco1)c1ccc2[nH]c(=O)c(=O)[nH]c2c1,-23%
Cc1nn(-c2ccccc2)c(Cl)c1/C=C/C(=O)c1ccc(O)cc1,?
O=C(O)c1cc(S(=O)(=O)N2CC=C(c3ccccc3)CC2)ccc1O,-10%
CCOC(=O)c1cccc(NC(=O)C2COc3ccc(OC)cc3C2)c1 (stereo not drawn),-3%
CC1(C)CC(=O)C2=C(C1)NC(=O)NC2c1ccccc1Cl (stereo not drawn),4%
CC(=O)N(C)c1ccc(C=C2C=Cc3ccccc32)cc1,?
COc1cccc(/C=N\NC(=O)Cn2nnc3ccccc32)c1O,15%

# Screening data from PubChem.
